Assay outcomes deposited in PubChem BioAssay by National Center for Advancing Translational Sciences (NCATS).
SMN2 splice enh: enhancers of SMN2 splice variant expression | actives 2.8% (n = 210,000) | HEK293 SMN2-luciferase splicing reporter, luminescence, 30-36 h | Potency, µM (doses to about 46.1 µM), inactives show at the highest dose activity change, positive = activation, hits mostly activators; also: % of control where 0% means no effect; nearly all actives have a fitted effect of over 55% in size
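HEK293 cells carry an SMN2 minigene-luciferase reporter in which exon 7 inclusion puts luciferase in frame. Cells were seeded at 2000 cells/well, attached for 10-12 hours, then exposed to compounds for 30-36 hours at 37C before ONE-Glo luminescence.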
JMJD2E inh: JMJD2E (human) inhibition | B2RXH2 | JMJD2E catalytic domain, FDH-coupled NADH fluorescence (FDH is formaldehyde dehydrogenase) | Potency, µM (titrated, usually from 57.1 µM), without a hit: top-dose activity change, negative = inhibition, actives largely listed as inhibitors | actives 1.6% (n = 230,000) | AID 2147; active = well fitted inhibition curve with a large enough effect, not every such curve was filed as active; inconclusive = small, poorly fitted or top-dose-only effect, or another doubt; inactive = no such curve, though single readings can be large or run the other way;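 also: 0% = wells with enzyme and -100% = buffer wells without enzyme; nearly all actives have a fitted effect of over 50% in size; many of its hits are not listed in these tables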
Target sequence (B2RXH2 1-337 limits assumed): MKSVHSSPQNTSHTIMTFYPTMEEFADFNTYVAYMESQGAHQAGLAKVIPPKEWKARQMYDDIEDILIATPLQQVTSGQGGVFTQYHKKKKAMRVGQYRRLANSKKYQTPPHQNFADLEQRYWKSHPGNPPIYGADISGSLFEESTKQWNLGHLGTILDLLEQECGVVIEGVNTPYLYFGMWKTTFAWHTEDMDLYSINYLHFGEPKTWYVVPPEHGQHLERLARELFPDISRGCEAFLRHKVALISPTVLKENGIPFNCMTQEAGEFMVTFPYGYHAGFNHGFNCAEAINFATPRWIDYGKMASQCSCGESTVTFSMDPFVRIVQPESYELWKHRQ
GLA spleen mod: alpha-galactosidase A (human) modulation | P06280 | human spleen homogenate, 4MU-alpha-Gal fluorescence, 40 min | Potency, µM (titrated, usually from 80 µM), inactives show at the highest dose activity change, negative = inhibition, hits mostly inhibitors | actives 0.008% (n = 240,000) | AID 2107;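 also: 0% = enzyme with vehicle and -100% = no enzyme basal signal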
Target sequence (P06280 32-429 limits assumed): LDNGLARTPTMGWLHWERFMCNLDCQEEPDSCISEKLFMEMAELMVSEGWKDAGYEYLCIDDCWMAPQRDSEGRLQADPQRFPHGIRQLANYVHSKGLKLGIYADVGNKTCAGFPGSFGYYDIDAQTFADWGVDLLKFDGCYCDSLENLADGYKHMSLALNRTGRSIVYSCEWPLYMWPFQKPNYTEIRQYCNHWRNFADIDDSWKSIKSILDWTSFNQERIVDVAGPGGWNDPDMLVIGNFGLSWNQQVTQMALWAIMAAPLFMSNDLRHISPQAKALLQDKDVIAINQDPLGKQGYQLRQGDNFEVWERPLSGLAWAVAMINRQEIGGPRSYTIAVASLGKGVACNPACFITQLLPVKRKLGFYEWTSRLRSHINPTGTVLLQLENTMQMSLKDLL
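Human spleen homogenate (1 ug) was the enzyme source, with 4-methylumbelliferyl-alpha-D-galactopyranoside (1 mM final) in pH 5.0 citrate buffer with 0.01% Tween-20. Compounds were titrated; after 40 min at 37C, NaOH/glycine stop, 4-MU fluorescence read; AC50 from Hill fits.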
GoLoco inh red: inhibitors of human Gai1-RGS12 GoLoco interaction (red fluorophore); actives 0.44% (n = 230,000); Potency, µM (titrated, usually from 61.6 µM), for the others: top-dose activity, negative = inhibition, hits mostly inhibitors; P63096; Gai1:RGS12 GoLoco peptide FP, rhodamine, 10 min; AID 880; active = well fitted inhibition curve with a large enough effect, not every such curve was filed as active; inactive = no such curve, though single readings can be large or run the other way; also: % is scaled to controls: 0 for no effect and ±100 for the full control effect; nearly all actives have a fitted effect of over 30% in size; many of its hits are not listed in these tables
Target sequence (P63096 whole entry, looked up): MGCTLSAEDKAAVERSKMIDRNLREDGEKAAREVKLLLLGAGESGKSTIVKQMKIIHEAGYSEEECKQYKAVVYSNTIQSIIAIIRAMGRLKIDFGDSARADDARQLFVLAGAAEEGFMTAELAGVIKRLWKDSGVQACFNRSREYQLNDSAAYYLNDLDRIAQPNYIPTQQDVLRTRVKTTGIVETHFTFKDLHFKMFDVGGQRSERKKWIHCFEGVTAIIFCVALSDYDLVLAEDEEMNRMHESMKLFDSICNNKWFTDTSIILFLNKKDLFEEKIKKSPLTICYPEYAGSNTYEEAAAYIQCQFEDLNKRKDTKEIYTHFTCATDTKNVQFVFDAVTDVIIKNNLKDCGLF
aGlu spleen mod: inhibitors or activators of human alpha-glucosidase in spleen homogenate | human spleen homogenate, 4-MU-alpha-glucoside fluorescence | AID 2112 | Potency, µM (doses to about 79.9 µM), without a hit: at the top dose activity change, negative = inhibition, hits mostly inhibitors | actives 0.006% (n = 240,000) | P10253;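 also: 0% = enzyme with vehicle and -100% = no enzyme basal signal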
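AC50 values come from Hill-equation fits of concentration-response data, normalized to no-enzyme and full-activity controls. Enzyme source: 1 ug human spleen homogenate; 1 mM fluorogenic 4-MU glucoside, pH 5.0 citrate buffer, 37 C, 40 min.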
GAA inh: alpha-glucosidase (human) inhibition. P10253. purified human GAA, 4-MU-alpha-glucoside fluorescence. Potency, µM (series often up to 76.9 µM), inactives show top-dose activity change, negative = inhibition, actives largely listed as inhibitors. actives 0.005% (n = 200,000). AID 1466;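 also: plate controls were uninhibited enzyme wells for no effect and no-enzyme background for full effect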
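Fluorescence at Ex 365/Em 440 nm from 4-methylumbelliferone reported enzyme activity after 20 min at room temperature. Reactions used 4 nM enzyme and 400 uM substrate at pH 5.0; curves fitted with the Hill equation.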
GAA glycogen: GAA glycogen-cleavage inhibition or activation; P10253; recombinant GAA, glycogen substrate, Amplex Red glucose oxidase fluorescence; Potency, µM (series often up to 76.4 µM), for inactives: top-dose activity change, negative = inhibition, actives largely listed as inhibitors; actives 0.38% (n = 300,000); AID 2100;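 also: 0% = full enzyme reaction and -100% = no-enzyme basal signal; the screen sought inhibitors and activators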
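Recombinant enzyme (4 nM final) with compounds titrated up to 77 uM and bovine liver glycogen (30 ug) in citrate pH 5.0, 0.01% Tween-20, 37 C 40 min. Released glucose detected by Amplex Red/glucose oxidase (Ex 573/Em 610); AC50 from Hill fits.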
Starred values were filed as active, the others as inactive; ? = inconclusive; · = no result given; [ ] = another dose, or the depositor's remark. Unless noted, calls follow the shape of the dose curve; as a rule, active = well fitted curve in the direction sought with a large enough effect; inconclusive = small, poorly fitted or top-dose-only effect, or another doubt; inactive = no such curve, though single readings can be large; an effect the other way counts as inactive or inconclusive. Potency is read from the fitted curve at half-maximal effect.

SMILES	SMN2 splice enh	JMJD2E inh	GLA spleen mod	GoLoco inh red	aGlu spleen mod	GAA inh	GAA glycogen
Oc1ccc(-c2nnc(-c3ccccc3)c(-c3ccccc3)n2)cc1	·	8%	-8%	·	-18%	2%	-6%
CSCCC(NC(=O)c1ccc(Cl)cc1)C(=O)NC(C)(C)C (stereo not given)	0%	1%	-2%	3%	-4%	-1%	3%
Cc1[nH]c2ccccc2c1C(=O)/C=C\c1ccccc1Cl	?	1%	1%	9%	-8%	-8%	-10%
O=C(COC(=O)c1cc(Br)ccc1O)Nc1cc(S(=O)(=O)N2CCCC2)ccc1Cl	-6%	?	4%	13%	5%	2%	-2%
CC(C)(C)c1ccc(NC(=O)C(=O)C2C(=O)Nc3ccccc32)cc1 (stereo not given)	2%	-6%	1%	9%	·	?	5%
Cc1nnc(OCC(=O)NCCC2=CCCCC2)c2ccccc12	1%	0%	10%	-5%	7%	-5%	2%
O=C(CSc1ccccc1)N(c1ccc(Br)cc1)c1nccs1	0%[1.84 µM]	-2%	7%	2%	4%	-3%	-6%
N#CCCCS(=O)(=O)c1nnnn1C1CCCCC1	12%	3%	-1%	2%	-10%	·	·
C=CCn1c(SCC(=O)NCCO)nc2sc(C)c(C)c2c1=O	·	-9%	0%	5%	2%	-3%	-4%
COc1ccc(Cc2nnc(-c3ccc(F)cc3)o2)cc1OC	-45%[inhibitor]	1%	8%	4%	9%	0%	3%
O=C(/C=C/c1cn(-c2ccccc2)nc1-c1cccnc1)NCCN1CCOCC1	?	-24%	1%	-1%	11%	-4%	-3%
Cc1c(C(=O)NCc2cccs2)oc2ccc(S(=O)(=O)N3CCOCC3)cc12	?	-2%	-2%	-7%	-9%	3%	-3%
COCCn1c(=O)cnc2cnc(Nc3ccccc3)nc21	·	·	-5%	16%	9%	·	·
Cn1cccc1CC(=O)N/N=C\c1ccccc1	13%	-6%	4%	7%	4%	7%	3%
CSc1ccccc1NC(=O)CSc1nncs1	-1%	11%	3%	0%	4%	-29%	8%
CN(Cc1ccccc1)Cc1nc2c(c(=O)n(C)c(=O)n2C)n1Cc1ccc(F)cc1	-16%	-8%	19%	-12%	-12%	2%	-2%
COc1cccc(CNS(=O)(=O)/C=C/c2ccc3c(c2)OCO3)c1	-11%	?	14%	0%	-6%	-1%	-2%
Cc1ccc(OCCNC(=O)/C=C/c2ccccc2)cc1C	-7%	-16%	-3%	-1%	-1%	-9%	-11%
CCO[C@H]1OC(C(=O)N2CCN(C)CC2)=C[C@@H](C)[C@@H]1CCCO	·	2%	-2%	3%	3%	·	-10%
COc1cccc(CN2CCN(C(=O)c3cc(-c4cccnc4)nc4ccc(C)cc34)CC2)c1	14%	-14%	-2%	-2%	-3%	0%	17%
CCOCC(=O)Nc1cc([N+](=O)[O-])ccc1C	·	6%	-1%	·	2%	5%	1%
COC(=O)[C@@H]1[C@@H]2C[C@H]3c4[nH]c5ccccc5c4CCN3C[C@@H]2CC[C@@H]1OS(=O)(=O)O	1%[9.22 µM]	·	·	2%[14.2 µM]	·	·	·
CC(NC(=O)CCC(=O)NC(C)C1COc2ccccc2O1)C1COc2ccccc2O1 (stereo not given)	-37%[inhibitor]	1%	-19%	9%	-7%	6%	0%
CC(=O)N1CCC[C@@]2(CCN(Cc3ccccc3)C2)C1	-8%	·	-2%	-5%	1%	·	·
C[C@H](CCC(=O)NCC(=O)O)[C@H]1CC[C@H]2[C@@H]3[C@H](O)C[C@@H]4C[C@H](O)CC[C@]4(C)[C@H]3C[C@H](O)[C@]12C	·	·	·	·	·	·	-14%[76.3 µM]
CCCCNC(=O)CSc1nc2cc3c(cc2c(=O)n1CCC(=O)NCCc1ccc(OC)c(OC)c1)OCO3	-26%	-5%	6%	9%	-2%	-13%	-9%
O=C(N(c1ccccn1)c1ccccn1)C12CC3CC(CC(Cl)(C3)C1)C2	8%	1%	-8%	-5%	2%	-8%	1%
Cc1ccc(-n2c(Cn3c(C)nc4ccccc43)n[nH]c2=S)cc1	·	-9%	3%	-27%	6%	0%	-1%
Cc1nc(C(=O)O)nn1-c1ccc([N+](=O)[O-])cc1	-9%	-8%	-7%	12%	-5%	13%	25%
CCSC1=C(C#N)C2(CCCCC2)C(C#N)C(=O)N1 (stereo not given)	-11%	1%	-7%	6%	-7%	-2%	?
Cc1ccc(N2C(=O)CC(Sc3ncn[nH]3)C2=O)cc1C (stereo not given)	-1%	1.3µM*	5%	40%[activator]	-1%	-4%	4%
CC(NC(=O)C1c2ccccc2Oc2ccccc21)C1CCCO1 (stereo not given)	9%	8%	-10%	-10%	-1%	0%	-6%
COC(=O)c1ccc(CNC(=O)CNc2cc(C(F)(F)F)ccc2N2CCOCC2)cc1	-20%	2%	8%	5%	6%	-4%	?
Cc1c(NC(=O)c2cccs2)c(=O)n(-c2ccccc2)n1C	·	-5%	11%	-8%	-4%	7%	0%
Cn1c2c(c(=O)n(C)c1=O)C1(C(=O)Nc3ccccc31)C(C#N)=C(N)O2 (stereo not given)	8%	-5%	-1%	-4%	-4%	1%	-8%
CCn1cnc2sc(C(=O)O)c(C)c2c1=O	-1%	7%	-3%	12%	-6%	-13%	-1%
C/C(=N\Nc1nc2ccccc2[nH]1)c1ccc2c(c1)OCCO2	·	-26%	2%	7%	1%	-7%	50µM*
Cc1ccc(N(CC(O)CN(C)C)S(=O)(=O)c2ccccc2)cc1 (stereo not given)	-4%	-1%	12%	7%	2%	-1%	-2%
COc1ccc(-n2nc(C)cc2N)cc1	·	-1%	-9%	8%	5%	11%	-8%
Cc1ccc(CNC(=O)C2CC(c3ccccc3[N+](=O)[O-])=NO2)o1 (stereo not given)	2%	1%	4%	3%	-5%	5%	1%
COC(=O)c1ccc(NC(=O)Cn2nc(-c3ccncc3)nc2SCC(=O)Nc2nccs2)cc1	-9%	7%	-2%	9%	-6%	-2%	6%
COc1cc(SC)ccc1C(=O)NCCOc1ccc(F)cc1	14µM*	3%	3%	-2%	0%	10%	-5%
COC(CNC(=O)c1ccc2c(c1)ncn2-c1cccc(F)c1)OC	4%	5%	3%	4%	0%	1%	5%
CCOC(=O)c1c(CN2CCCCC2)oc2ccc(O)cc12	7%	-2%	-2%	1%	-13%	-5%	-12%
Cc1ccc(-c2cccc(NC(=O)C3C(C(=O)O)[C@@H]4C=C[C@H]3C4)c2)o1 (stereo not given in full)	-13%	?	4%	-3%	4%	1%	8%
COC(=O)c1c(=O)n(O)c2ccc(OC)cc2[n+]1[O-]	4%	?	3%	-41%	-6%	-15%	-1%
CCn1c(CSc2nc3ccccc3[nH]2)n[nH]c1=S	-2%	-3%	-9%	5%	-5%	3%	-19%
Cc1ccc(CN(C(=O)Cn2nnc3ccccc32)C(C(=O)NCc2ccco2)c2ccc(C)o2)cc1 (stereo not given)	19%	9%	-4%	1%	-15%	-7%	5%
Oc1c(Br)cc(Br)cc1C=Nc1ccc2c(c1)OCO2	2%	3%	-3%	46%[activator]	0%	8%	-1%
C=C(C)CNC(=S)Nc1cccc2cnccc12	·	12%	4%	·	-5%	-4%	-13%
O=C(NC1CCCC1)C1C2C=CC(C2)C1C(=O)N1CCOCC1 (stereo not given)	10%	-2%	-1%	-7%	-5%	-3%	-1%
CCOc1ccc(OCC(=O)Nc2ccc(S(=O)(=O)Nc3cc(C)nc(C)n3)cc2)cc1	?	7%	-3%	2%	-5%	-5%	-1%
O=S(=O)(c1ccc(C2CCCCC2)cc1)N1CCOCC1	-68%[inhibitor]	1%	-3%	-1%	-3%	-1%	-8%
O=S(=O)(N/N=C/c1cn(Cc2ccccc2)c2ccccc12)c1ccccc1	-32%[inhibitor]	-5%	4%	2%	5%	8%	?
COC(=O)N/N=C/c1cccc(OCCSc2ccc(Cl)cc2)c1	11µM*	1%	2%	12%	-7%	?	2%
O=C(Nc1ccc(OC(F)F)cc1)c1ncc(Cl)c(Cl)c1Cl	21%	7%	-2%	-1%	-3%	-1%	7%
O=C(Nc1cccc(NC(=O)c2cccs2)c1)c1ccc2c(c1)OCO2	28%	-6%	5%	3%	12%	2%	-1%
Cc1ccc2nc(NC(=O)C3CCN(S(=O)(=O)c4ccc5c(c4)oc(=O)n5C)CC3)sc2c1	-34%[inhibitor]	-5%	-2%	9%	-8%	-13%	-8%
Oc1ccc(/C=N/NC(=S)NCc2ccco2)cc1	4%	-1%	-3%	9%	-3%	-2%	28µM*
N#CC1=C(N)N2C(=C(C#N)C1c1ccc(Br)cc1)Nc1ccccc12 (stereo not given)	·	?	7%	·	-6%	-15%	4%
Going on with the list.
SMILES	SMN2 splice enh	JMJD2E inh	GLA spleen mod	GoLoco inh red	aGlu spleen mod	GAA inh	GAA glycogen
CC(=O)Nc1ccc(S(=O)(=O)N2c3ccccc3C(C)=CC2(C)C)cc1	·	11%	2%	16%	2%	-14%	-6%
O=C(N/N=C1/C[C@@H](O)[C@@H](O)[C@@H]2[C@@H]3C(=O)N(c4cccc(Oc5ccccc5)c4)C(=O)[C@H]3CC[C@H]12)OCc1ccccc1	·	·	1%[17.5 µM]	·	-1%[17.4 µM]	·	·
C=CCOc1ccc(C2C(C#N)=C(N)N(Nc3ccccc3)C3=C2C(=O)CCC3)cc1OC (stereo not given)	·	-4%	24%	·	10%	-16%	-6%
Cc1cc(C)nc(/N=C2\NC(=O)CC(C(=O)O)N2c2ccc(Cl)cc2)n1 (stereo not given)	18%	-9%	-7%	-7%	2%	-14%	3%
COc1ccc(S(=O)(=O)c2cnc3ccc(OC)cc3c2N2CCC3(CC2)OCCO3)cc1	-17%	2%	-2%	8%	5%	1%	-2%
Cc1ccc(C(C)NC(=O)/C(C#N)=C\c2c(C)[nH]c3ccccc23)cc1 (stereo not given)	-11%	-14%	-4%	-2%	-10%	-15%	-15%

Shown with each value named: entries from further up
C=CCOc1ccc(C2C(C#N)=C(N)N(Nc3ccccc3)C3=C2C(=O)CCC3)cc1OC (stereo not given)
  SMN2 splice enh: ·
  JMJD2E inh: -4%
  GLA spleen mod: 24%
  GoLoco inh red: ·
  aGlu spleen mod: 10%
  GAA inh: -16%
  GAA glycogen: -6%

Cc1cc(C)nc(/N=C2\NC(=O)CC(C(=O)O)N2c2ccc(Cl)cc2)n1 (stereo not given)
  SMN2 splice enh: 18%
  JMJD2E inh: -9%
  GLA spleen mod: -7%
  GoLoco inh red: -7%
  aGlu spleen mod: 2%
  GAA inh: -14%
  GAA glycogen: 3%

These rows are one share of the data; count on the stated rates, not on these rows.
